Bioassay records from PubChem.
RanGTP-Imp inh – disruptors of Ran-importin-beta complex formation – biochemical, FRET, CFP-Ran, YFP-importin-beta, homogeneous, primary screen | cell-free CFP-Ran/YFP-importin-beta FRET ratio | inhibition, % (test concentration not listed) | actives 1.1% (n = 300,000) | AID 2216;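 active means most replicates above 15%; inconclusive means exactly half above 15%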;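 further: 0% = DMSO wells and 100% = Ran loaded with GDP instead of GTP; wells of about 40 µL received 100 nL stock; the first replicate is given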
Vif A3G – inhibitors of Vif binding to APOBEC3G peptide, primary screen, biochemical, TR-FRET, GST-Vif 1-94, biotin-A3G peptide, dose response retest (AID 1117319); TR-FRET GST-Vif / biotin-A3G peptide binding; higher % means a stronger effect; test concentration not given here; strong numbers were not always called active; one-dose inhibition, %; IC50 in µM for titrated hits; actives 0.57% (n = 260,000);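 active means above the screen mean plus three standard deviations and confirmed in dose response; inconclusive means results disagree or hit not tested in dose response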;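 further: Vif residues 1-94 fused to GST binding biotinylated APOBEC3G peptide 110-148; 0% = full assay without inhibitor and 100% = GST in place of GST-Vif; retest series ran down from 100 µM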
Beta2AR agonist – activates human beta-2 adrenergic receptor causing internalization; P07550; Am2.2-beta2AR cells, FAP receptor internalization, flow cytometry; reference of the scale not given here; response, % (test concentration not listed); actives 0.43% (n = 340,000);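 active means response above a set limit, near 3 SD of response in nonfluorescent compounds, cut at about 42% in these data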;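 further: stock transfer was 100 nL into about 11 µL; a reference agonist was the positive control; negative values mostly stem from fluorescent compounds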
Target sequence (P07550 whole entry, looked up): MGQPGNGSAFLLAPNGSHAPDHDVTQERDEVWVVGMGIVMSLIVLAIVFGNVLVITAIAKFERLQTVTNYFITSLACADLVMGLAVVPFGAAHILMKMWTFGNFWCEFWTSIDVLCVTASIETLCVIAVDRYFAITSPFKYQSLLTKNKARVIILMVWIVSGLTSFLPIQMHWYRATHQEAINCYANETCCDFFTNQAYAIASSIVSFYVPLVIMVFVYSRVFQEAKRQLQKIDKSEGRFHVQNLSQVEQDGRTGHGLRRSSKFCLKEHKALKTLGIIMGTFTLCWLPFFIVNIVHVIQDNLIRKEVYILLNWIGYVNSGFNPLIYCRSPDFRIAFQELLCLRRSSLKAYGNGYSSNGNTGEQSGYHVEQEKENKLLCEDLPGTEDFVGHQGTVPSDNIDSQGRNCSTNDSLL
LANA-H2B inh – blocks KSHV LANA binding to histone H2A/H2B. AID 2629. cell-free LANA-H2A/H2B peptide, fluorescence polarization. actives 0.6% (n = 320,000). inhibition, % (test concentration not listed); in the data active means inhibition mostly above about 10%, no sharp cut-off; inactive means mostly below about 6.7%;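 further: stock transfer was 7.5 nL into about 10 µL; 0% = median of vehicle wells and 100% = median of positive control wells; one replicate is shown; the record names a cut of 25% in any replicate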
Calb FLC – affects C. albicans growth with fluconazole | C. albicans CaCi-2 (fluconazole-resistant clinical isolate) + fluconazole, Alamar Blue growth, 48 h | actives 0.57% (n = 300,000) | growth inhibition, % (test concentration not listed) | AID 1979;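 active means most replicates above 75%; inconclusive means exactly half above 75%; inactive means most below 75%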;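 further: all wells also contain fluconazole at 8 µg/ml as a sub-toxic cotreatment; 0% = median of DMSO wells and 100% = median of geldanamycin control wells; wells of about 8 µL received 7.5 nL stock; the first replicate is given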
ALR inh – inhibitors of human sulfhydryl oxidase ALR; AID 485317; inhibition, % (concentration not given with the values); actives 3.8% (n = 290,000); purified ALR, DTT oxidation, H2O2 HRP-luminol luminescence;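 active means mean and each replicate at 75% or more; inconclusive means only one of the two met; inactive means neither met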;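 further: stock transfer was 7.5 nL into about 7.5 µL; 0% = neutral wells and 100% = wells with inactivated enzyme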
Target sequence (P55789 whole entry, looked up): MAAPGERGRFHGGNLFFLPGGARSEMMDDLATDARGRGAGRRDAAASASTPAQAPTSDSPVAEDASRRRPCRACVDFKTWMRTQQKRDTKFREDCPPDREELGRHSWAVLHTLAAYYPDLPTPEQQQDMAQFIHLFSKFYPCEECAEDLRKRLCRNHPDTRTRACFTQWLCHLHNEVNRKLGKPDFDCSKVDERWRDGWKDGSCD
HNF4A DNA FP – change in binding of human HNF4 alpha to DNA; actives 0.3% (n = 360,000); HNF4a-FITC DNA binding, fluorescence polarization, 1 h; AID 1224865; P41235; activity change, % at 10 µM; in the data active means activity change above about 30%, passing the limit was not always enough;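 further: controls were the assay level and a saturating level of protein; the project sought stronger binding though the title names inhibitors; some compounds called inactive have numbers as strong as hits; positive values seem to mean higher polarization but the record does not say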
Target sequence (P41235 whole entry, looked up): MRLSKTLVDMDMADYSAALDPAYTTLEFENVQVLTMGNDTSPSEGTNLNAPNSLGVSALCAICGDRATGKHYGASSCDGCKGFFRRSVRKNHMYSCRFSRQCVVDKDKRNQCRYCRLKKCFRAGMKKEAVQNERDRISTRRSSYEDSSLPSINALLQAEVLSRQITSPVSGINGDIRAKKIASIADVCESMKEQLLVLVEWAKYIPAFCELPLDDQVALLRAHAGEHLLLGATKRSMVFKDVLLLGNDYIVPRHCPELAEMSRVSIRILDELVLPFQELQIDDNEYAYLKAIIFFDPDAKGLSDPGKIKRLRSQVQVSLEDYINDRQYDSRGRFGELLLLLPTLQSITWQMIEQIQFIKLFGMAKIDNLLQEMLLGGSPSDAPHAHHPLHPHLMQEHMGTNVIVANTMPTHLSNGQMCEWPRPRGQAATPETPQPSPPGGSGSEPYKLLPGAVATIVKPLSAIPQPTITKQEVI
Starred values were filed as active, the others as inactive; u = inconclusive; x = not tested or not shown.

Compound | RanGTP-Imp inh | Vif A3G | Beta2AR agonist | LANA-H2B inh | Calb FLC | ALR inh | HNF4A DNA FP
O=C(Nc1cccc(Br)c1)c1cc(S(=O)(=O)N2CCOCC2)cs1 | -0.7 | 3% | 6 | 1.5 | -4 | -14 | 2.0
O=C(Nc1ccc(Br)cc1)c1ccc(-n2cnnn2)cc1 | 0.0 | x | -1 | 7.8 | -3 | 1 | -0.3
O=c1cc(O)n(-c2ccccc2)c(=S)[nH]1 | 3.5 | 30% | -3 | 6.1 | 1 | 2 | 1.6
COc1ccc(N2CCN(C(=O)c3cccc(Br)c3)CC2)c([N+](=O)[O-])c1 | 2.7 | -14% | 3 | 0.9 | 10 | 1 | -5.0
CCNC(=O)NC(=O)C(C)OC(=O)CCS(=O)(=O)c1ccc(C)cc1 (centres undefined) | -4.3 | 2% | 1 | -1.0 | -6 | -4 | 2.9
CSc1cccc(NC(=S)N(Cc2ccc(C)cc2)Cc2ccccn2)c1 | 3.1 | -3% | 2 | -0.8 | 15 | 7 | -3.9
Cc1cccc(C(=O)OCC(=O)NC(C)CCc2ccccc2)c1O (centres undefined) | -0.2 | -10% | -6 | 4.0 | -7 | -14 | 4.8
COc1ccc(-c2nnc3sc(CN4C(=O)c5ccccc5C4=O)nn23)cc1 | 0.9 | x | -2 | -2.0 | 6 | 4 | 3.5
Cc1ccccc1C(=O)Nc1nc(=S)ss1 | -6.0 | -3% | 11 | -5.5 | -16 | 4 | 1.9
CC1CCN(c2ccc(/C=N/n3nnnc3N)cc2[N+](=O)[O-])CC1 | -3.0 | 11% | -1 | 2.4 | -23 | -1 | 3.9

(continued)
Compound | RanGTP-Imp inh | Vif A3G | Beta2AR agonist | LANA-H2B inh | Calb FLC | ALR inh | HNF4A DNA FP
O=S(=O)(c1ccc2c(c1)OCCCO2)N1CCNCC1 | 4.2 | -3% | 6 | -2.5 | -11 | -1 | 2.1
O=C(Cn1ccc(C(F)(F)F)n1)N/N=C/c1ccc(N2CCOCC2)cc1 | -0.6 | 0% | 6 | -3.2 | -1 | 24 | 3.1
O=C(OCCCN1CCOCC1)c1ccc(O)c(O)c1 | 1.5 | 12% | 1 | 1.0 | -2 | 99* | -0.8
Fc1ccccc1C1c2cccn2CCN1C(=S)Nc1ccc(Br)cc1 (centres undefined) | 1.8 | x | 23 | -5.2 | -11 | 0 | 4.1
COc1ccc(OC)c(S(=O)(=O)NCCO)c1 | -2.3 | -1% | 0 | 5.7 | -6 | -11 | -0.8
N#Cc1c(-c2cccnc2)cc(-c2ccccc2)nc1N | 1.8 | 0% | 8 | -0.3 | 5 | x | 0.7
CCOC(=O)c1c(NC(=O)COC(=O)c2cccnc2OCC)sc(C(=O)N(CC)CC)c1C | x | 0% | 16 | -0.5 | x | -3 | -4.7
Oc1c(C=Nc2ccccc2)sc(=S)n1Cc1ccccc1 | 39* | 0% | -5 | -2.6 | -3 | 13 | 24
NC(=O)c1ccsc1NC(=O)CSc1nnc(Nc2ccccc2)s1 | -0.4 | u | -3 | 0.3 | -4 | 5 | 0.3
CCN(CC)S(=O)(=O)c1ccc(NC(=O)COC(=O)c2c[nH]c(=O)[nH]c2=O)cc1 | -1.7 | 4% | -5 | 2.8 | -14 | -5 | 1.2

(listing goes on)
Compound | RanGTP-Imp inh | Vif A3G | Beta2AR agonist | LANA-H2B inh | Calb FLC | ALR inh | HNF4A DNA FP
CC(=O)N(Cc1ccccc1)c1ccccc1C(=O)O | 3.0 | u | 3 | -6.7 | -24 | 0 | 4.8
O=C(COC(=O)C1CCN(S(=O)(=O)c2cccs2)CC1)c1ccccc1 | -0.6 | 16% | 1 | x | -3 | x | 4.1
CN(Cc1ccccc1)C(=O)COC(=O)COc1ccc(C#N)cc1 | 1.3 | -9% | -5 | -2.0 | -19 | -7 | -3.0
C/C(CC(=O)Nc1ccc2c(c1)OCCO2)=N\NC(=O)c1ccccc1F | -1.3 | x | 45* | 3.1 | 1 | 34 | 1.4
CC1CCCC(C)N1CCNC(=O)Nc1ccc(Cl)cc1 (centres undefined) | 2.4 | -1% | 15 | 7.7 | 1 | -3 | -0.7
CC(C)(C)c1ccc(C(=O)NCC(=O)N/N=C/c2ccccc2OCC(=O)O)cc1 | 0.8 | 0% | 0 | -0.1 | -4 | 2 | -1.8
Cc1ccc(CNC(=O)c2cc3c(=O)n(C)c4ccccc4c3n2C)cc1 | u | 1% | 6 | -0.6 | 3 | -3 | 4.1
O=C(NNC(=O)c1cccs1)c1cccc(F)c1 | -0.2 | 12% | 13 | -2.8 | -1 | -3 | 1.4
O=S(=O)(NCC1CCCO1)c1cc(Br)c(Br)s1 (centres undefined) | -3.5 | 77% | 1 | x | -14 | x | -0.1
COCCN(C(=O)c1ccccc1F)c1nc(-c2ccc(OC)cc2)cs1 | 3.4 | x | 1 | -4.0 | 0 | -1 | 1.4

More records.
Compound | RanGTP-Imp inh | Vif A3G | Beta2AR agonist | LANA-H2B inh | Calb FLC | ALR inh | HNF4A DNA FP
Cc1ccc(S(=O)(=O)N2CCN(c3ccc4nnc(-c5ccccc5)n4n3)CC2)cc1 | x | -12% | -6 | x | x | x | 2.2
CCC1(C)Cc2ccccc2C(Nc2c(C)n(C)n(-c3ccccc3)c2=O)=N1 (centres undefined) | 1.6 | -2% | 0 | 0.7 | -5 | 1 | -2.2
O=C(CSc1nc2[nH]ncc2c(=O)[nH]1)c1ccccc1 | -2.3 | -8% | -6 | -2.5 | 6 | 24 | -4.6
O=C(O)C1C2C=CC(C2)C1C(=O)Nc1ccc(C(=O)N2CCCCC2)c(Cl)c1 (centres undefined) | -0.9 | 1% | 3 | 1.8 | 1 | -3 | -1.6
CC1(C)Cc2cccc(OCC(O)CNCc3ccccn3)c2O1 (centres undefined) | -0.1 | 3% | 3 | -11 | 7 | x | 0.9
COc1cc(=O)[nH]c(SC(C)C(=O)Nc2cccc3ccccc23)n1 (centres undefined) | -2.5 | x | -1 | 10 | -6 | -12 | -4.2
COC(=O)c1sccc1N/N=C/c1cccc(OC)c1O | 5.0 | -1% | 2 | 2.9 | -10 | 31 | 3.4
O=[N+]([O-])c1cc(/C=N\Nc2nccs2)ccc1O | 4.0 | 1.6µM* | x | x | 0 | x | x
O=C(COc1ccccc1)N(Cc1cccs1)C1CCS(=O)(=O)C1 (centres undefined) | 0.0 | -5% | 3 | -0.3 | -2 | -25 | 1.0
Cc1ccnc(SCc2cc(=O)c(OC(=O)c3ccc(S(=O)(=O)N4CCCC4)cc3)co2)n1 | -1.3 | 6% | 1 | 2.5 | -6 | 6 | 1.3

A second format for part of the listing above.
Under each structure – RanGTP-Imp inh	Vif A3G	Beta2AR agonist	LANA-H2B inh	Calb FLC	ALR inh	HNF4A DNA FP
> O=C(Nc1ccc(Br)cc1)c1ccc(-n2cnnn2)cc1
 : 0.0	x	-1	7.8	-3	1	-0.3
> O=C(NNC(=O)c1cccs1)c1cccc(F)c1
 : -0.2	12%	13	-2.8	-1	-3	1.4
> O=C(O)C1C2C=CC(C2)C1C(=O)Nc1ccc(C(=O)N2CCCCC2)c(Cl)c1 (centres undefined)
 : -0.9	1%	3	1.8	1	-3	-1.6
> CC1(C)Cc2cccc(OCC(O)CNCc3ccccn3)c2O1 (centres undefined)
 : -0.1	3%	3	-11	7	x	0.9
> Cc1ccnc(SCc2cc(=O)c(OC(=O)c3ccc(S(=O)(=O)N4CCCC4)cc3)co2)n1
 : -1.3	6%	1	2.5	-6	6	1.3

Later entries
Compound | RanGTP-Imp inh | Vif A3G | Beta2AR agonist | LANA-H2B inh | Calb FLC | ALR inh | HNF4A DNA FP
Cc1[nH]c2ccccc2c1CCN(Cc1cccs1)C(=S)Nc1ccccc1 | -2.6 | 7% | -12 | -6.6 | -8 | -7 | -2.1
CCOc1ccccc1NC(=O)CCn1c(=O)oc2ccccc21 | -0.4 | -5% | -3 | 0.9 | -1 | x | 2.6
CCN(CC)S(=O)(=O)c1ccc(N2CCOCC2)c(NS(=O)(=O)c2ccc(C)c(C)c2)c1 | 4.7 | x | -14 | -0.6 | -2 | x | 2.0
CC12C(=O)N(c3cccc4cccnc34)C(=O)C1C1C=CC2C1 (centres undefined) | 0.8 | 1% | -6 | 2.9 | -4 | x | 2.6
O=C(NCc1ccc2c(c1)OCO2)Nc1ccc([N+](=O)[O-])cc1 | 5.6 | x | -3 | 1.9 | -37 | -10 | 1.6
CCC(=O)OCC(=O)Nc1ccc([N+](=O)[O-])cc1OC | 1.6 | -6% | 8 | -2.5 | -6 | -8 | -1.4
Cc1ccc(OCCNC(=O)Cn2cnc3c(=O)n(C)c(=O)n(C)c32)cc1C | 2.0 | x | -5 | -6.1 | 9 | -3 | 3.1
COc1ccc(N(CN2C(=O)c3ccccc3C2=O)C(=O)C(C)C)cc1 | -2.9 | 12% | -19 | -0.6 | 0 | -3 | 3.0
CCc1ccc(OC(C)C(=O)N(Cc2ccccc2)C2CCS(=O)(=O)C2)cc1 (centres undefined) | 3.8 | x | -2 | -0.5 | 2 | -17 | 0.1
O=C(c1ccccc1Br)N1N=C(c2ccccc2)CC1c1ccccc1F (centres undefined) | 3.2 | -4% | -5 | 0.5 | -7 | 3 | -0.8

Later entries.
Compound | RanGTP-Imp inh | Vif A3G | Beta2AR agonist | LANA-H2B inh | Calb FLC | ALR inh | HNF4A DNA FP
CCc1nnc(NC(=O)c2ccc3ccccc3n2)s1 | 1.3 | x | -11 | -22 | 2 | x | 1.4
O=C(CN1CCN(C(=O)c2cncn2-c2ccccc2)CC1)Nc1ccccc1Cl | x | -3% | 12 | 1.4 | x | 7 | 4.3
N=c1c(S(=O)(=O)c2ccc(Cl)cc2)cc2c(=O)n3ccccc3nc2n1CC1CCCO1 (centres undefined) | 112* | x | -6 | 0.3 | -2 | -12 | 6.9
CN(C)CCCN(C(=O)c1nc2ccccc2s1)c1nc2ccc(F)cc2s1 | 4.4 | x | 1 | -1.9 | -5 | x | 0.5
CN1C(=O)/C(=C\c2cc(Br)cs2)c2ccccc21 | -0.3 | x | -17 | -3.3 | -5 | x | 3.2
CCCNC(=O)NC(=O)CSc1nnc(C)n1N | x | 6% | 4 | 2.9 | x | 1 | -1.1
CCn1c(C)nc2cc(C(=O)NNC(=S)NC(=O)c3ccccc3)ccc21 | x | -11% | 5 | -3.3 | 22 | 38 | -4.2
Cc1nn(C)c(=O)c(N)c1-c1cc(-c2ccc(Cl)c(Cl)c2)n[nH]1 | -1.0 | x | 0 | 2.0 | 1 | -3 | 2.2
O=C(O)c1ccc(N2C(=O)C3C4c5ccccc5C(Br)(c5ccccc54)C3C2=O)cc1 (centres undefined) | 1.1 | -5% | 6 | 2.2 | 6 | 5 | -1.6
OC(Cc1cccnc1)(Cc1cccnc1)c1cc2ccccc2[nH]1 | 1.6 | 3% | -2 | -1.9 | 11 | -6 | -3.6

(further entries)
Compound | RanGTP-Imp inh | Vif A3G | Beta2AR agonist | LANA-H2B inh | Calb FLC | ALR inh | HNF4A DNA FP
O=C(NC(=S)Nc1cccc(C(F)(F)F)c1)c1ccc2nonc2c1 | -2.4 | x | 15 | 4.4 | 12 | 26 | -2.6
Cn1c(SCC(=O)N2CCc3ccccc3C2)nnc1-c1ccncc1 | 0.8 | 19% | -4 | -1.2 | 57* | -1 | 3.2
COc1ccccc1NC(=O)NCCCCc1ccccc1 | -1.8 | 5% | -11 | 6.6 | -4 | -8 | -2.1
O=C(c1ccc(Br)cc1)c1cc(-c2ccccn2)c(N2CCOCC2)s1 | -3.5 | -1% | -11 | 1.5 | 22 | x | -1.6
CCOC(=O)C1=C(c2ccccc2)O/C(=C(\C(=O)OC)C(F)(F)F)S1 | 4.0 | -84% | 4 | 6.0 | -5 | -1 | 0.7
CC(C)(C)OC(=O)NCCc1nnc(SCC(=O)Nc2cccc(Cl)c2)o1 | 4.4 | -1% | 6 | -0.7 | 16 | 0 | 1.1
